# High-throughput results (PubChem)
# LASV entry inh: Lassa virus entry inhibition. Lassa virus pseudotype entry inhibition, cell reporter; control for the full effect not named in the record. Potency, µM (highest dose often 37.9 µM), for inactives: top-dose activity change, negative = inhibition, actives largely listed as inhibitors. hit rate 1.2% among 300,000. AID 540256; active means well fitted inhibition curve with a large enough effect; inconclusive means small, poorly fitted or top-dose-only effect, or effect the other way; inactive means flat fitted curve, though single readings scatter; tested in HEK293 cells; also: % is scaled to controls: 0 for no effect and ±100 for the full control effect; nearly all actives have a fitted effect of over 50% in size; luciferase read-out
# SARS PLpro yeast: SARS-CoV PLP inhibition in yeast; S. cerevisiae expressing SARS-CoV PLpro, growth rescue; control for the full effect not named in the record; hit rate 0.19% among 330,000; AID 485353; Potency, µM (series often up to 32.9 µM), without a hit: top-dose activity, positive = growth rescue; active means well fitted rising curve with a large enough effect; inconclusive means small, poorly fitted or top-dose-only effect; inactive means no such curve, though single readings can be large or run the other way; also: 0% is about no effect; nearly all actives have a fitted effect of over 55% in size; growth read by luminescence after 48 h
# MARV entry inh: blocks Marburg virus binding to or entry into cells; AID 540276; Marburg virus pseudotyped entry inhibition, cell reporter; control for the full effect not named in the record; about a third of the inactives were read at about 46 µM; Potency, µM (highest dose often 37.8 µM), for the others: top-dose activity change, negative = inhibition, actives largely listed as inhibitors; hit rate 1.8% among 300,000; active = well fitted inhibition curve with a large enough effect; inconclusive = small, poorly fitted or top-dose-only effect, or effect the other way; inactive = flat fitted curve, though single readings scatter; tested in HEK293 cells; about a fifth of its hits are not listed in these tables; also: % is scaled to controls: 0 for no effect and ±100 for the full control effect; luciferase read-out
# 2A StopGo: FMDV 2A StopGo reporter, luciferase signal; hit rate 1.2% among 410,000; human cells with a luciferase reporter of 2A StopGo recoding; control for the full effect not named in the record; Potency, µM (top dose mostly 57.9 µM), for the others: at the top dose signal change, negative = less light; active = well fitted falling curve with a large enough effect; inconclusive = small, poorly fitted or top-dose-only effect; inactive = no such curve, though single readings can be large or run the other way; tested in HEK293T cells; also: % is scaled to controls: 0 for no effect and ±100 for the full control effect; nearly all actives have a fitted effect of over 45% in size; luciferase light after 4 h
# NS1 function inh: blocks influenza NS1 protein function; Potency, µM (titrated, usually from 46.1 µM), without a hit: at the highest dose activity, positive = more growth; S. cerevisiae slowed by influenza A NS1, growth recovery by OD600; hit rate 0.4% among 270,000; active means well fitted rising curve with a large enough effect; inconclusive means small, poorly fitted or top-dose-only effect; inactive means no such curve, though single readings can be large or run the other way; also: nearly all actives have a fitted effect of over 50% in size
#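 OD600 was taken as the measure of yeast growth restored by compound in an NS1-expressing S. cerevisiae strain. Cells had been washed out of glucose medium and diluted 1:100 into galactose -URA medium, pH 6.0.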
# RE007 growth inh: less growth of the S. pombe RE007 Vpr strain; Potency, µM (top dose mostly 92.2 µM), without a hit: at the highest dose activity change, negative = less growth; S. pombe RE007 Vpr strain, BacTiter-Glo ATP luminescence, 24 h; control for the full effect not named in the record; hit rate 0.21% among 360,000; active = well fitted falling curve with a large enough effect; inconclusive = small, poorly fitted or top-dose-only effect; inactive = no such curve, though single readings can be large or run the other way;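 also: % is scaled to controls: 0 for no effect and ±100 for the full control effect; nearly all actives have a fitted effect of over 50% in size; the assay follows cell death caused by Vpr and the record does not say whether a fall means rescue or toxicity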
#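 Fission yeast RE007 carrying one integrated HIV-1 vpr copy, seeded at OD 0.01 in PMG+AL medium with 23 nL pinned compound. Grown 24 h at 30 degrees; viability read by BacTiter-Glo luminescence after 5 min.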
# Cruzain Triton: cruzain (T. cruzi) inhibition with detergent; Potency, µM, inactives show max response, negative = inhibition, actives largely listed as inhibitors; P25779; AID 1478; hit rate 0.43% among 200,000; purified cruzain, Z-FR-AMC fluorescence, 0.01% Triton;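 also: plate controls were neutral wells for no effect and buffer without enzyme for full effect; nearly all actives have a fitted effect of over 40% in size; top concentration of the series not given in the record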
# Target sequence (P25779 123-467 limits assumed): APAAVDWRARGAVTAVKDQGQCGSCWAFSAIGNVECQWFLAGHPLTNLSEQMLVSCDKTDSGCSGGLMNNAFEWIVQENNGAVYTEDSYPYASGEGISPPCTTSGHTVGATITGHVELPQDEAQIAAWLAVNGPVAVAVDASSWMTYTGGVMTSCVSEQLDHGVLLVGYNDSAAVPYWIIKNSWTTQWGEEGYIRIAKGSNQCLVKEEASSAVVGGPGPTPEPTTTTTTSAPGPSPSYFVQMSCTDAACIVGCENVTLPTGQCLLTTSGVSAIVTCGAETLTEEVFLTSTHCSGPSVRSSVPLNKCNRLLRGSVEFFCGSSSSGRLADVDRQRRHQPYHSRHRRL
#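 Compounds were screened in titration against cruzain (1.5 nM) with 0.01% Triton X-100 to counter colloidal aggregation. Activity was the AMC fluorescence increase over 60 s after adding 2 uM Z-FR-AMC at pH 5.5.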
# Cruzain noTriton: cruzain (T. cruzi) inhibition without detergent. P25779. purified cruzain, Z-FR-AMC fluorescence, no detergent. Potency, µM, inactives show max response, negative = inhibition, actives largely listed as inhibitors. hit rate 2.3% among 200,000;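 also: plate controls were enzyme without inhibitor for no effect and buffer without enzyme for full effect; nearly all actives have a fitted effect of over 40% in size; top concentration of the series not given in the record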
#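 Purified cruzain at 1.5 nM, pre-incubated 15 min with compound at room temperature in 100 mM sodium acetate pH 5.5, 5 mM DTT, 0.00005% Triton X-100. Reaction started with 2 uM Z-FR-AMC; AMC fluorescence increase over 60 s gives rate.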
# Starred values were filed as active, the others as inactive; ? = inconclusive; / = no result given; [ ] = remark or other dose. Unless noted, calls follow the shape of the dose curve; as a rule, active = well fitted curve in the direction sought with a large enough effect; inconclusive = small, poorly fitted or top-dose-only effect, or another doubt; inactive = no such curve, though single readings can be large; an effect the other way counts as inactive or inconclusive. Potency is read from the fitted curve at half-maximal effect.
SMILES,LASV entry inh,SARS PLpro yeast,MARV entry inh,2A StopGo,NS1 function inh,RE007 growth inh,Cruzain Triton,Cruzain noTriton
O=[N+]([O-])c1ccc(Oc2cccc3cccnc23)c([N+](=O)[O-])c1,?,/,?,?,-18%,/,-6.6%,-7%
O=C(CN1C(=O)NC2(CCCCCCC2)C1=O)NCc1ccc2c(c1)OCO2,-12%,4%,2%[46.1 µM],0%,0%,6%,-0.4%,14%
C/C=C/c1ccc(OCC(=O)O)c(OC)c1,1%,1%,13%,-12%,5%,-3%,/,/
OCCNc1c2ccccc2nc2c(F)c(F)c(F)c(F)c12,?,-9%,?,22µM*,-15%,-29%,0.6%,-5%
CCCc1cc(=O)[nH]c(SCC(=O)N(Cc2ccccc2)C(C)C)n1,-11%,8%,-10%,-9%,-2%,8%,0.5%,10%
COc1ccc(C(=O)Cn2c(NCCCO)nc3ccccc32)cc1OC,/,-7%,/,-12%,-9%,-9%,/,/
CCOC(=O)c1c(O)c2ccccc2n(CC)c1=O,10%[46.1 µM],1%,8%[46.1 µM],15%,/,-8%,/,/
COc1ccc(CNc2nc3nc(C)c(Cl)c(C)n3n2)cc1,4%[46.1 µM],0%,?,37%[activator],-5%,2%,/,/
Cc1ccc(NC(=S)NC(NC(=O)c2ccccc2C)C(Cl)(Cl)Cl)c(C)c1 (stereo not drawn),?,0%,23µM*,-26%,?,31%,-10%,29%
Cc1cc(-c2ccc(N=Nc3ccc4c(S(=O)(=O)O)cc(S(=O)(=O)O)c(N)c4c3O)c(C)c2)ccc1N=Nc1ccc2c(S(=O)(=O)O)cc(S(=O)(=O)O)c(N)c2c1O,?,/,?,32µM*,/,/,28µM*,?
Cc1cccc(NC(=O)CN2C(=O)NC3(CCCCCCC3)C2=O)c1C,-22%,3%,-37%,6%,/,-3%,/,/
C=C(C)c1cccc(C(C)(C)NC(=O)Nc2ccccc2OCC)c1,0%,-2%,-2%,-25%,5%,-1%,4.1%,?
COc1cccc(Oc2ccc(C(F)(F)F)cc2N)c1,?,7%,?,12%,5%,1%,-5.1%,-3%
O=C(CN1CCCCCC1)Nc1c(Cl)cc(Cl)cc1Cl,/,0%,/,35%[activator],1%,?,/,/
COc1ccc(NC(=O)C(=O)NNC(=O)COc2ccc(Cl)cc2)c(OC)c1,/,4%,/,-10%,?,2%,/,/
COc1ccccc1/C=C\C=N\n1c(-c2ccc(Cl)cc2Cl)n[nH]c1=S,-21%,13%,-11%,-6%,13%,11%,-0.8%,32µM*
CC1(c2ccc(OC(F)F)cc2)NC(=O)N(CC(=O)Nc2cccc(F)c2)C1=O (stereo not drawn),-2%,0%,?,-10%,0%,9%,/,/
COc1cc(OC)cc(-c2nnc(SCc3cccnc3)o2)c1,0%,9%,7%,/,-87%,7%,-1.2%,4%
O=C(c1ccc(-c2ccccc2Cl)o1)N1CCCCCCC1,-6%,/,?,6%,/,-20%,/,/
CCN(CC)C(=O)C(=O)Nc1cc(C(F)(F)F)ccc1Cl,3%,-2%,1%[46.1 µM],22%,3%,-27%,1.7%,-5%
COc1ccc(Cc2nc3ccc(C(=O)NCCCN4CCN(C)CC4)cc3o2)cc1,?,/,/,?,/,/,-1.6%,3%
CCOc1nc2ccccc2cc1/C=C/C(=O)O,-16%[46.1 µM],-1%,-4%[46.1 µM],14%,/,4%,/,/
CCC(=O)N1c2ccccc2CC1C(=O)NCCc1ccc(Cl)cc1 (stereo not drawn),12%[46.1 µM],/,/,-14%,/,/,0.9%,4%
CC(=O)Nc1ccc(SCCCC(=O)c2ccccc2)cc1,?,-30%,3%[46.1 µM],36%[activator],-40%,40%,/,/
Cc1ccc(CCNC(=O)c2c3c(nc4ccccc24)C(=O)N(C2CCCCC2)C3)cc1,-30%[46.1 µM],/,/,-20%,/,/,-5.1%,?
Cc1ccc(S(=O)(=O)CCC(=O)N2CCN(c3ccc([N+](=O)[O-])cc3)CC2)cc1,/,-4%,/,?,1%,?,/,/
COc1ccc(CNC(=O)CCS(=O)(=O)Cc2ccc(C)cc2)c(OC)c1,10%,1%,6%,-17%,/,16%,/,/
CC(C)c1ccc(NC(=O)CCNC(=O)N2C[C@H]3C[C@@H](C2)c2cccc(=O)n2C3)cc1,/,-1%,/,-1%,10%,0%,/,/
Cc1cc(C)nc(NCC(O)COc2ccccc2C)n1 (stereo not drawn),13%,-3%,-23%,-7%,-28%,5%,-0.1%,10%
Cc1nccc(-c2cccc(NC(=O)c3ccccc3Cl)c2)n1,/,1%,/,-10%,-5%,11%,/,/
Cc1ccc(NC(=O)COC(=O)c2cccnc2)cc1,23%[46.1 µM],3%,1%[46.1 µM],-1%,/,35%,/,/
Cc1onc(-c2ccccc2)c1C(=O)NCCc1ccncc1,/,7%,/,-8%,1%,6%,/,/
COc1ccccc1CNC(=O)CSc1nc2c(oc3ccccc32)c(=O)n1CC1CCCO1 (stereo not drawn),2%,2%,?,-20%,/,-21%,/,/
Cn1c(CNC(=O)c2ccccc2F)cc2ccccc21,/,-13%,/,15%,11%,-21%,/,/
CCc1ccc(-n2c(=O)c3cccnc3n2CC(=O)NCc2ccccc2)cc1,-19%[46.1 µM],/,/,13%,/,/,-17%,12%
CCOCCCNc1ncnc2onc(C)c12,0%[46.1 µM],/,/,-21%,/,/,-2.1%,5%
CC(=O)OCCOCn1cnn2c(=O)c(Br)c(C)nc12,/,-2%,/,8%,8%,14%,/,/
COc1ccc(C2C(C(=O)N3CCC(C)CC3)c3ccccc3C(=O)N2C)cc1 (stereo not drawn),?,-16%,5%,-13%,2%,1%,-0.9%,-2%
COc1cccc(/C=N/NC(=O)CN2CC(c3ccccc3)CC2=O)c1OC (stereo not drawn),-1%,6%,?,0%,-11%,7%,1.8%,3%
CCn1c(C)nc2cc(C(=O)NNC(=O)CCC3CCCCC3)ccc21,?,-2%,5%,5%,3%,-8%,0.7%,8%
COc1ccccc1OCC#CCN1CCCC1,/,-1%,/,-2%,0%,-8%,/,/
Nc1ccccc1SCC(O)Cn1ccc2ccccc21 (stereo not drawn),-1%,-3%,?,13%,17%,3%,/,/
COc1ccc(-c2c(C(C)=O)c(C)n(C)c2C)cc1,?,5%,-4%,?,5%,1%,-2.0%,11%
COc1ccc(Cc2noc(CN3CCCC(C(=O)c4cccs4)C3)n2)cc1OC (stereo not drawn),5%,-1%,?,?,-35%,-7%,/,/
O=C(CNC(=O)c1cccc(Cl)c1)Nc1ccc(Br)cc1C(=O)c1ccccc1,15%,-42%,?,-18%,-23%,8%,-7.2%,8%
COC(=O)c1ccc2c(c1)NC1=C(C(=O)CC(C)(C)C1)C(c1ccncc1)N2 (stereo not drawn),-15%,-1%,?,61%[activator],-6%,0%,-12%,?
CC1SCC(=O)N(CC(=O)NCCc2ccccc2)C1=O (stereo not drawn),-3%,-11%,-21%[46.1 µM],22%,/,-9%,/,/
Cc1ccc(-c2csc(NC(=O)C3CC(=O)N(Cc4ccco4)C3)n2)cc1 (stereo not drawn),?,21%,?,?,/,4%,/,/
O=C(Nc1ccc2nc(C3CC3)n(Cc3ccc(F)cc3)c(=O)c2c1)c1ccco1,?,-4%,-29%,-20%,-48%,-25%,-5.4%,6%
CCC(=O)OCC(=O)Nc1ccc([N+](=O)[O-])cc1OC,0%[46.1 µM],-2%,-1%[46.1 µM],-10%,-9%,-11%,/,/
COc1cccc(NC(=O)CSC2=NN3CCCC(=O)N=C3S2)c1,-5%,-1%,-14%[46.1 µM],?,1%,-13%,/,/
Cc1cccc(NC(=S)N2CCCCCC2)c1C,/,17%,/,-9%,13%,7%,/,/
Cc1[nH]c2ccccc2c1C(c1ccccc1)c1cccs1 (stereo not drawn),3%[46.1 µM],/,/,?,/,/,-1.7%,3%
CCOc1ccc(S(=O)(=O)c2c(C(=O)c3ccc(C)c(C)c3)cnc3ccccc23)cc1,/,/,-13%[46.1 µM],-22%,/,/,-2.7%,20µM*
O=C(Nc1cccc(-c2nc3ccccc3o2)c1)c1cccnc1,18%[46.1 µM],-2%,?,?,/,1%,/,/
CCCN(C(=O)COC(=O)CC1CCCCC1)c1c(N)n(Cc2ccccc2)c(=O)[nH]c1=O,?,3%,-8%,-29%,/,4%,/,/
Cc1cc(Cl)ccc1OCC(=O)N1CCN(C)CC1,12%,0%,14%,10%,-6%,-1%,4.8%,9%
O=C(NNS(=O)(=O)c1ccc(Cl)cc1)NC1CCCCC1,0%,3%,26%,8%,-2%,5%,1.4%,7%
C=CCNC(=O)c1cc(Cl)ccc1[N+](=O)[O-],-6%,21%,-5%,0%,13%,-7%,1.1%,7%
O=C(CCc1ccccc1)NNC(=O)COc1ccc(Br)cc1,4%,0%,2%[46.1 µM],-20%,0%,24%,/,/

# The listing continues.
SMILES,LASV entry inh,SARS PLpro yeast,MARV entry inh,2A StopGo,NS1 function inh,RE007 growth inh,Cruzain Triton,Cruzain noTriton
O=C(N/N=C\c1cc(Br)c(Br)o1)C1COc2ccccc2O1 (stereo not drawn),-7%,-3%,-7%,15%,-8%,-4%,/,/
CCCCOc1ccccc1C1NC(=O)NC(C)=C1C(=O)OCCOCC (stereo not drawn),1%,-14%,-18%,/,3%,-1%,-2.4%,1%
CCOc1ccc(NC(=O)c2c(C)oc3nc(C)nc(N4CCCC4)c23)cc1,6%[46.1 µM],/,/,-12%,/,/,-5.5%,8%
CN(C)c1ccc(S(=O)(=O)NCC(=O)N2CCN(c3ccccc3)CC2)cc1[N+](=O)[O-],-17%,0%,23%,24%,/,15%,/,/
Cc1noc2ncnc(Nc3ccc(F)cc3)c12,19%[46.1 µM],/,/,-10%,/,/,-2.3%,5%
COC(=O)CC#N,/,1%,/,-21%,/,0%,5.2%,-3%
OC(COc1ccc2c(c1)CCC2)CN1CCN(c2ccccc2F)CC1 (stereo not drawn),-25%,0%,7%,/,?,-3%,2.9%,-13%
